FEN1 inh: human FEN1 inhibition; P39748; Recombinant FEN1 flap cleavage, fluorescence, 15 min; Potency, µM (series often up to 114 µM), without a hit: at the highest dose activity change, negative = inhibition, usual class: inhibitors; 390,000 tested, 0.35% active; AID 588795; active = well fitted inhibition curve with a large enough effect; inconclusive = small, poorly fitted or top-dose-only effect; inactive = no such curve, though single readings can be large or run the other way; note: nearly all actives have a fitted effect of over 65% in size
Target sequence (P39748 whole entry, looked up): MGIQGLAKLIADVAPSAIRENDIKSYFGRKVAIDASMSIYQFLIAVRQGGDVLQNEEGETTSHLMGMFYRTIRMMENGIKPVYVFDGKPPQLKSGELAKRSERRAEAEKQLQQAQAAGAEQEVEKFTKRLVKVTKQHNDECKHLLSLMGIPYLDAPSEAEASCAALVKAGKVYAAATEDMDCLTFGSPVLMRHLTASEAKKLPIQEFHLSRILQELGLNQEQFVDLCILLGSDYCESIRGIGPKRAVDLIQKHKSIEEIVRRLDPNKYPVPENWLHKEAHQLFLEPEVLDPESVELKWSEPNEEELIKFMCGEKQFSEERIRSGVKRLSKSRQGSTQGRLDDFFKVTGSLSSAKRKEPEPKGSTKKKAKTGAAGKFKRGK
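In this screen, 50 nM flap DNA substrate was added to 10 nM FEN1 pretreated with compound for 15 min at room temperature; cleavage was followed with reads at 0 and 15 min, and Hill fitting gave concentration–response parameters.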
Numbers without * were called inactive; ? = inconclusive; & = joins results of further samples; [ ] = dose if it differs, or a comment. % is set by controls: 0 for no effect and ±100 for the full control effect; potency is the fitted concentration of half-maximal effect.

smiles,FEN1 inh
CCOc1ccc(S(=O)(=O)N(CC)CC)cc1NS(=O)(=O)c1ccc(F)c(F)c1F,5%
Cc1nc(-c2ccccc2)sc1C(=O)CSc1ccc(F)cc1,-18%
COc1ccc(N2CCN(CCCNC(=O)CN3CCN(Cc4ccccc4C)C3=O)CC2)cc1,4%
CCOC(Cn1ccc(=O)[nH]c1=O)OCC,-2%
CCOC(=O)C1=C(C)N(c2ccccc2)C(=O)NC1c1cccc([N+](=O)[O-])c1 (stereo not given),5%
NC(=O)C1CCN(C(=O)C2(NC(=O)Nc3cccc(F)c3)CCCCC2)CC1,19%
CCC(=O)N1CCc2cc(Br)cc(S(=O)(=O)CCC(=O)N3CCN(c4ccccc4F)CC3)c21,-10%
O=C(NC1CC1)C1CCN(C2CCN(C(=O)/C=C/c3cccs3)CC2)CC1,3%
CN1CCN(CC(=O)NC23CC4CC(CC(C4)C2)C3)CC1,-3%
C/C(CC(=O)Nc1ccc(C)c(Cl)c1)=N\NC(=O)c1ccccn1,7%
CCCCNC(=O)CCNC(=O)c1ccc(C(C)(C)C)cc1,3%
CC1CCc2sc(C(=O)OCC(=O)NC(N)=O)cc2C1 (stereo not given),7%
CC(C)(C)[C@]1(O)CCN2C[C@H]3c4ccccc4CCc4cccc(c43)[C@@H]2C1,?
CN=C(NC#N)SCC(=O)c1ccc(Cl)cc1Cl,-6%
O=C(NNC(=O)C1CC1)c1cc(=O)[nH]c2ccccc12,-1%
COC(=O)c1ccccc1NC(=O)C1CCN(C(=O)N2CC(C)Oc3ccccc32)CC1 (stereo not given),-1%
CCOC(=O)CC(=O)Nc1nnc(C(C)C)s1,-15%
COc1ccc(-c2nn3c(-c4ccco4)nnc3s2)cc1OC,-16%
COC(=O)c1sc2cccc(F)c2c1S(=O)(=O)N1CCN(c2ccc(C)cc2C)CC1,-16%
Cc1nc2sccn2c(=O)c1S(=O)(=O)Nc1ccc(N2CCN(S(C)(=O)=O)CC2)cc1,2%&7%
O=C(OCC(=O)N(C1CCCCC1)C1CCCCC1)c1cnccn1,8%
N/C(Cc1ccc([N+](=O)[O-])cc1)=N\OC(=O)Cc1ccc(Cl)cc1,-7%
O=C(NCc1ccc(Cl)cc1)C1CCN(S(=O)(=O)c2cccc3nonc23)CC1,?
COc1ccc(S(=O)(=O)N2CCCC(C(=O)N3CCOCC3)C2)cc1OC (stereo not given),-11%
O=C(c1ccc(S(=O)(=O)NCc2ccco2)cc1)N1CCN(c2ccccc2)CC1,-2%
Cc1cc(C)nc(SCCN(C)C)n1,5%
COc1cc2c(cc1OC)C(c1ccc(F)cc1)N(c1ccccc1)C(=O)C2 (stereo not given),17%
CS(=O)(=O)N1CCC(NC(=O)Cc2ccccc2)CC1,10%
CCCCCCCCC(=O)NCCOc1ccc(OC)cc1,3%
COc1ccc(S(=O)(=O)N(C(=O)c2ccncc2)c2ccc(OC(=O)c3ccncc3)cc2)cc1,-11%

Next part:
smiles,FEN1 inh
Oc1ccccc1OCC(O)c1ccccc1 (stereo not given),3%
COCCCn1c(-c2cccs2)nc2nc3ccccc3nc21,9%
COc1cc(CN(C)Cc2cc(=O)n3ccsc3n2)ccc1OC(F)F,2%
Cc1cccc(-c2noc(CN(C(C)C)S(=O)(=O)c3ccc(Br)cc3)n2)c1,-9%
COc1ccc(OC)c(S(=O)(=O)Nc2cc3c(C(C)=O)c(C)oc3c3ccccc23)c1,-21%
O=C(NCc1ccco1)c1cc2sccc2n1Cc1ccc(F)cc1,-20%
CCC(=O)N1CCc2cc(Br)cc(S(=O)(=O)N3CCC(C(=O)Nc4cccc(C)c4)CC3)c21,12%
Cc1cnc(CNC(=O)c2ccc(OC3CCN(C(=O)C4CC4)CC3)cc2)cn1,5%
COc1ccc(Nc2nc(Nc3ccc(OC)cc3)nc(SC3=NCCS3)n2)cc1,-7%
CCOC(=O)/C=C/[C@H]1CCc2cccc(C)c2O1,17%
Cc1cc(NC(=O)Nc2ccc(Cl)c(Cl)c2)n(-c2ccccc2)n1,-7%
Cc1cccc(NC(=O)CSc2nc(=O)n(Cc3ccncc3)c3c2CCC3)c1C,-5%
Cn1c(C(=O)NCCCN2CCN(c3ccccc3F)CC2)cc2c(=O)[nH]c3ccccc3c21,-15%
c1ccc2c(N3CCCCC3)nc(N3CCCC3)nc2c1,1%
O=C(Nc1cccc2nsnc12)c1cccnc1,-9%
COCCNc1nnc(SCC(=O)Nc2cc(C)on2)s1,16%
CCOC(=O)C1(CCc2ccccc2)CCN(C(=O)CCc2cnccn2)CC1,-1%
O=C(NC(=S)N1CCCC1)c1ccc(Cl)cc1Cl,0%
Cc1cccc(NC(=O)c2ccc([N+](=O)[O-])o2)n1,-1%
COc1ccc(Nc2oc(COc3ccc(OC)cc3)nc2C#N)cc1,-22%
CN(CC(=O)Nc1ccc(F)c(F)c1F)C(=O)C1CCN(C(=O)Nc2ccccc2)CC1,-2%
O=S(=O)(NC1=NCCCCC1)c1ccc(F)cc1,-6%
Cc1cc(C)nc(NC(=O)c2c(Cl)cccc2Cl)n1,0%
CCOC(=O)c1oc2ccc(S(=O)(=O)n3nc(-c4cc(OC)cc(OC)c4)cc3N)cc2c1C,-1%
CCN(Cc1ccccc1)C(=O)CCS(=O)(=O)c1cc2c(cc1Cl)NC(=O)CO2,-1%&27%
Cc1ccc(CN2CCN(CCCc3ccccc3)CC2CCO)cc1 (stereo not given),-8%
O=C(NNC(=O)C1CC1)c1ccc(-c2ccccc2)cc1,3%
CC(C)n1c(SCC(=O)N2CCN(C(=O)c3ccco3)CC2)nc2c1c(=O)n(C)c(=O)n2C,-9%
CN1CCCCc2c1nc1ccccc1c2N (tested in a mixture with another compound),-1%
Nc1ccc(S(=O)(=O)Nc2ncccn2)cc1,2%

Next compounds:
smiles,FEN1 inh
CCC(C)n1cnc2c(c1=O)c1nc3ccccc3nc1n2Cc1ccccc1OC (stereo not given),2%
CCn1c(=O)cc(SCC(=O)NCc2ccco2)c2ccccc21,-6%
C=CCN1C(=O)/C(=C/C(=O)OC)S/C1=N\NC(=O)c1ccccc1,3%
O=C(OCC(=O)c1ccc(Cl)cc1Cl)c1ccccn1,-11%
C=CCSc1ncccc1C(=O)NCc1ccc(C)cc1,7%
C=C(C)CSc1nnc(CCNC(=O)OC(C)(C)C)o1,-4%
CCOC(=O)c1ccc(S(=O)(=O)N2CCC(C(=O)Nc3nnc(C)o3)CC2)cc1,-4%
Cc1nnc(N2C(=O)c3oc4ccccc4c(=O)c3C2c2ccc(C(C)(C)C)cc2)s1 (stereo not given),12%
Cc1ccc(/C=C/C(=O)Nc2cc(S(N)(=O)=O)ccc2O)cc1,-4%
CCOc1ccc(/C(O)=C2\C(=O)C(=O)N(CCOCCO)C2c2ccccc2OC)cc1 (stereo not given),-12%
O=S(=O)(c1ccc(Br)cc1)c1nnn2c1nc(N1CCOCC1)c1sccc12,0%
O=C(Nc1ccccc1)Nc1nnc(-c2ccccc2)s1,16%
Cc1ccc(C)c(N(CC(=O)NCC2CCCO2)C(=O)CCC(=O)Nc2nccs2)c1 (stereo not given),5%
O=C1CC(c2ccccc2F)C2=C(COC2=O)N1 (stereo not given),6%
COC(=O)c1cccc(NC(=O)c2ccco2)c1,-1%
O=[N+]([O-])c1ccc(N2CCN(S(=O)(=O)c3ccccc3)CC2)cc1NCC1CCCO1 (stereo not given),-4%
Cc1cc(C)n(-c2ccc(F)cc2)c(=O)c1C(=O)O,10%
COc1ccc(CCC(=O)Nc2sc(C(=O)N(C)C)c(C)c2C#N)cc1,1%
CN(Cc1ccccn1)C(=O)C1CCC(=O)N(Cc2cccc(C(F)(F)F)c2)C1 (stereo not given),-14%
Cc1ccc(F)cc1NC(=O)CSCc1c(C)noc1C,-8%
CCOC(=O)c1cccc(NC(=O)c2cccs2)c1,-1%
CCC1Nc2ncnc(N3CCN(c4ccccc4)CC3)c2N(Cc2ccc(OC)cc2)C1=O (stereo not given),-27%
CN1CCc2c(sc(NC(=O)CS(=O)(=O)c3ccccc3)c2C(N)=O)C1,-15%
O=C(COc1ccccc1[N+](=O)[O-])Nc1ccc2c(c1)CCC2,6%
CCOC(=O)Cc1csc(NC(=O)c2c(-c3c(F)cccc3Cl)noc2C)n1,-5%
CCOC(=O)c1cc(S(=O)(=O)NCC2CCN(Cc3cccc(C)c3)CC2)cn1C,10%
O=C(CCOc1ccccc1)Nc1ccc(S(=O)(=O)N2CCCC2)cc1,-3%
Cc1cc(O)c(C(=O)Nc2cccc(Cl)c2)c(=O)n1C,24%
O=C(O)C1C2C=CC(O2)C1C(=O)Nc1ccccc1C(F)(F)F (stereo not given),-1%
COc1ccc(C)cc1NC(=O)COC(=O)c1ccc2c(c1)OCCO2,19%

Part of the list above in order of count of non-hydrogen atoms, low to high:
smiles,FEN1 inh
C=CCSc1ncccc1C(=O)NCc1ccc(C)cc1,7%
O=C(COc1ccccc1[N+](=O)[O-])Nc1ccc2c(c1)CCC2,6%
COc1ccc(CCC(=O)Nc2sc(C(=O)N(C)C)c(C)c2C#N)cc1,1%
O=S(=O)(c1ccc(Br)cc1)c1nnn2c1nc(N1CCOCC1)c1sccc12,0%

New compounds follow:
smiles,FEN1 inh
O=c1c2oc3ccccc3c2ncn1Cc1ccc(F)cc1,-18%
CC(C)[C@H](NC(=O)c1ccccc1)C(=O)OCC(=O)c1ccccc1F,0%
COc1ccc(N2CCN(C(=O)CSc3nnc4ncccn34)CC2)cc1,-14%
COc1ccc(OCC(=O)Nc2cc(OC)ccc2N2CCCCC2)cc1,10%
O=C(NCCc1ccc(Cl)cc1)Nc1cccc(Cl)c1,-18%
COc1ccccc1CNC(=O)CCCc1nnc2n(CC(C)C)c(=O)c3sccc3n12,5%
N#CC1=C(SCC(=O)c2ccc(Br)cc2)NC2=C(C(=O)CCC2)C1c1ccco1 (stereo not given),-16%
CCC1CCCCN1CCCNC(=O)CN1C(=O)c2cccnc2Oc2ccc(C)cc21 (stereo not given),-3%&9%
CCc1ccccc1NC(=O)NC(C)c1ccc2c(c1)OCO2 (stereo not given),3%
Cc1ccc(NC(=O)CN2CCN(Cc3ccccc3)CC2)cc1F,-8%
CC(SC(=S)N1CCCC1)C(=O)O (stereo not given),1%
CCOc1cc(/C=N/NC(=O)c2cccnc2)ccc1OCC(=O)N(C)C,0%
CN(NS(=O)(=O)c1cccs1)c1ncc(C(F)(F)F)cc1Cl,14%
COc1ccc(NC(=O)C2C3C=CC4(CN(Cc5cccnc5)C(=O)C24)O3)c(OC)c1 (stereo not given),37%[activator]
COc1cc(OC)cc(C(=O)OCn2nnc3ccccc3c2=O)c1,-14%
C=CCNC(=S)NNC(=O)c1ccc2c(c1)OCO2,-2%
Fc1ccc(C2CCNCC2COc2ccc3c(c2)OCO3)cc1 (stereo not given),-11%
CC[C@]12c3[nH]c4cc(-c5ccco5)ccc4c3CCN1C(=O)[C@@H](CC(=O)NCCN1CCOCC1)C[C@@H]2C(=O)N1CCN(C(=O)C2CC2)CC1,0%
O=C1CC(N2CCN(S(=O)(=O)c3cccc(C(F)(F)F)c3)CC2)C(=O)N1Cc1ccccc1 (stereo not given),-4%
COC(=O)CCC(=O)OC1(C)C(=O)C=C2C=C(C3CC3)N(CCc3ccccn3)C=C2C1=O (stereo not given),7%
CC(=O)/C=C(/C)NC(Cc1c[nH]c2ccccc12)C(=O)O (stereo not given),2%&-3%
COc1ccc(-c2nc(CCl)cs2)cc1,5%
CN(Cc1ccccc1)C(=O)c1cccc(N2C(=O)NC3CC2(C)Oc2ccccc23)c1 (stereo not given),-14%
CCOC(=O)Cn1nc(C)c2c1CCCC2=O,-3%
Cc1ccc(NC(=S)NNC(=O)c2nnn(-c3ccccc3)c2C)cc1,-4%
CC1=NN(C(=O)COc2ccc(C)c(C)c2)C(O)(c2ccccc2)C1 (stereo not given),4%
CCOC(=O)C(C)Sc1nnc(Cc2cc(=O)[nH]c(=O)[nH]2)n1-c1ccc(Cl)cc1 (stereo not given),-9%
COc1ccc(C)cc1NC(=O)NCCC1=CCCCC1,2%
Cc1nc(NC(=O)COC(=O)[C@@H](NC(=O)c2ccco2)C(C)C)c(Cl)cc1Cl,-6%
COc1ccc(CCCC(=O)NC2CCCCC2C)c(C)c1 (stereo not given),3%

(list continues)
smiles,FEN1 inh
CCOc1ccc(NC(=O)Cn2c(=O)n(-c3ccc(C)cc3)c(=O)c3cc(OC)c(OC)cc32)cc1,10%
COc1ccc(-n2c(COc3ccc4ccccc4c3)nnc2SCC(=O)NCc2ccco2)cc1,0%
CO/N=C/C(C#N)c1ncc(C(F)(F)F)cc1Cl (stereo not given),-1%
CN=c1scc(-c2ccc(Cl)cc2)n1C,-9%
Cc1nn(-c2ccccc2)c(N2CCCC2)c1/C=N/NC(=O)c1cc2ccccc2cc1O,-20%
Cc1sc2ncn(CC(=O)N3CCCC(C)C3)c(=O)c2c1S(=O)(=O)N1CCCCC1 (stereo not given),0%
COc1cccc(CNC(=O)Cn2c(C)c3cnn(-c4ccccc4)c(=O)c3c2C)c1,-8%
COc1ccc(N/C=C/C(=O)c2ccc(Cl)cc2)cc1,0%
O=C(CSc1nnnn1-c1cccc2c1CCCC2)N1CCCCC1,-15%
CCOc1ccc(Cl)cc1/C=N/O,-13%
CSc1ccc2c(c1)C(N1CCN(C)CC1)Cc1ccccc1S2 (stereo not given),?

Source: PubChem

Only part of the results is shown, and most or all hits are left out here.
